# Screening data from PubChem.
# Sa ugtP lethal: growth inhibition of ugtP-null S. aureus, primary screen, RN4220 ugtP deletion, OD600; actives 0.54% (n = 330,000); AID 1259309, 2017; 16 h; some inactives read as strong as hits; growth inhibition, % (no concentration beside the values);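 active = z-score under -3 and OD600 up to 0.15 on both plates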;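 note: plate controls were untreated wells for no effect and antibiotic for full effect; wells of about 80 µL received 100 nL stock; the first replicate is given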
# Autofluor counter: compound fluorescence in toxin protease inhibitor counterscreen; compound autofluorescence counterscreen, microsphere flow cytometry; stronger effect = higher value; fluorescence intensity (test concentration not listed); actives 3.1% (n = 360,000); AID 624483;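 active = at least 3 SD above the mean of all compounds, about 16000 in these data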;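 note: 100 nL of 1 mM stock went into each well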
# PrP 5UTR inh: inhibition of PrP 5' UTR reporter expression | cell-based PrP 5' UTR mRNA reporter, plate reader | inhibition, % (test concentration not listed) | actives 0.35% (n = 340,000);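 active = every replicate at 50% or more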;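 note: 0 = median of the neutral control wells; tested in H4 reporter cells; numbers are from one replicate; inactives centre near -14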
# BJeLR viability: MLPCN primary cell-based screen for lethality selective to Ras in HRASV12 cells. actives 0.17% (n = 300,000). BJeLR (HRASV12) viability, CellTiter-Glo ATP luminescence, 48 h; reference of the scale not given here. inhibition, % (concentration not given with the values). AID 1554, 2009;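 active = replicate mean above 50%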;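 note: 50 nL library stock added to about 25 µL; numbers are from one replicate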
# Mtb hypoxia rep: PubChem AID 1159583; M. tuberculosis hypoxia-regulated fluorescent reporter, fluorescence; fluorescence inhibition, % (no concentration beside the values); actives 0.1% (n = 300,000);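 active = 35 to 45% if threefold the growth effect, above 45% if 1.5-fold the growth effect; inactive = the rest, general growth blockers included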;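 note: wells of about 50 µL received 100 nL stock; 0% = vehicle wells and 100% = reference inhibitor wells; whole bacteria with a GFP reporter of the hypoxia response; strong numbers were not always called active; many hits fall short of the cut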
# RN4220 kill: growth inhibition of S. aureus RN4220, primary screen, OD600. inhibition, % (concentration not given with the values). AID 1259311, 2017. 16 h. actives 0.33% (n = 330,000);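 active = z-score of -3 or lower and OD600 up to 0.18 on both plates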;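 note: plate controls were untreated cells for no effect and reference antibiotic for full effect; stock transfer was 100 nL into about 80 µL; one replicate is shown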
# Mtb hypoxia rep growth: further read-out of Mtb hypoxia rep, marked with its call; growth inhibition, %; measured here: M. tuberculosis growth (absorbance);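 0% = vehicle and 100% = reference antibiotic; read after six days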
# Active calls of the source: *; / = not tested or not shown.
SMILES,Sa ugtP lethal,Autofluor counter,PrP 5UTR inh,BJeLR viability,Mtb hypoxia rep,Mtb hypoxia rep growth,RN4220 kill
COc1ccc(CCNC(=O)CCC(=O)n2ncc3cc(C)ccc32)cc1OC,0,5520,-15,-7,-7,7,16
O=C(Nc1ccc2ccccc2c1)c1cnccn1,5,8484,-51,4,17,9,7.8
NC(=O)c1nc(N2CCOCC2)nc(N2CCOCC2)n1,1,3928,-12,3,/,/,-0.7
Cc1ccc(/C=C2/Sc3ccccc3N(CC(=O)NCC3CCCO3)C2=O)cc1 (stereo not drawn),8,5935,-23,-16,-5,-2,2.7
CN(Cc1ccc(N(C)C)cc1)C(=O)c1cc2ccccc2o1,6,5946,-15,4,4,-4,4.7
O=C(Nc1cccc([N+](=O)[O-])c1)NC1CCCCCCC1,-47,5199,-42,/,/,/,-0.1
COc1cccc(CNC(=O)CCCNC(=O)c2ccc(Cl)cc2)c1,3,6940,-20,8,6,-3,-0.3
O=C(CCCCCn1c(=S)[nH]c2ccccc2c1=O)N1CCOCC1,16,4155,-27,2,21,7,2.8
COc1ccc(N2CCN(C(=O)NCc3cccc(OC)c3)CC2)cc1,/,3746,-17,-14,/,/,/
CS(=O)(=O)c1ccc(CNC(=O)[C@]2(C(F)(F)F)C[C@H](CCc3ccccc3)CCCO2)cc1,/,3856,-1,-5,/,/,/
Cn1c(NC(=O)C=Cc2c(F)cccc2Cl)cc(=O)n(C)c1=O,-2,/,/,/,-2,1,8.5
COc1cccc(-n2nc(C(=O)N3CCN(Cc4ccccc4)CC3)c3ccccc3c2=O)c1,6,1960,-12,-2,-3,-4,-2.9
O=C1CCN(Cc2ccc(Cl)cc2Cl)C(=O)N1,3,4131,-6,/,10,6,2.2
CC(C)[C@H](NC(=O)c1cccc(CN(Cc2ccccc2)C(=O)c2ccccc2)c1)C(=O)O,-1,3422,-11,-2,-1,2,4.1
COc1ccc(Cc2nnc(SCC(=O)Nc3ccc(C)cc3C)[nH]c2=O)cc1,14,4234,-17,-17,-11,-10,6.8
Cc1cc(C)nc(Sc2ccc([N+](=O)[O-])cc2[N+](=O)[O-])n1,3,2180,-13,-2,11,10,8.4
Cc1ccc(N(CC(=O)N2CCN(Cc3ccccc3)CC2)S(C)(=O)=O)cc1C,4,4304,-16,-8,17,2,3.1
CCOc1ccc(Nc2nc(Cc3nnc(SCC(=O)O)o3)cs2)cc1,18,6982,-3,6,0,2,6.0
COc1ccc(N2CCN(c3oc(Cc4cccc5ccccc45)nc3C#N)CC2)cc1,-4,11677,-24,8,0,1,1.8
Cc1ccc2nc(N3CCN(C(=O)c4ccco4)CC3)c3nncn3c2c1,-1,4965,-28,-1,2,12,1.5
CCOCCCNC(=O)c1cc(Sc2nnc(C)s2)nc2ccccc12,1,5458,-12,-2,17,5,5.4
N#Cc1c(-c2ccccc2)nc(SCC(=O)Nc2ccc(OC(F)(F)Cl)cc2)[nH]c1=O,-1,4296,-17,7,7,0,-9.5
CC1(NC(=O)C2CCN(C(=O)Nc3ccccc3)CC2)CCS(=O)(=O)C1 (stereo not drawn),/,6228,-19,6,/,/,/
Cc1ccc(C(=O)Nc2cccc(C(=O)NN=Cc3ccccc3F)c2)cc1,0,/,/,/,-8,0,-4.2
C=CCn1c(O)c2ccc(C(=O)N=NC(=O)COc3ccc(OC)cc3)cc2c1O,0,5003,-13,-6,4,4,2.0
SMILES,Sa ugtP lethal,Autofluor counter,PrP 5UTR inh,BJeLR viability,Mtb hypoxia rep,Mtb hypoxia rep growth,RN4220 kill
CCOc1ccc(S(=O)(=O)N2CCN(C(=O)c3cc([N+](=O)[O-])ccc3N3CCOCC3)CC2)cc1,8,2845,-8,/,8,7,3.0
COc1ccccc1-n1c(SCC(=O)Nc2ccccc2C)nc(O)cc1=O,5,11212,-11,3,0,1,-0.4
CC1(C)Cc2nc3nc(SCC(=O)Nc4ccccc4)nc(N)c3cc2CO1,15,3709,-14,-7,11,16,0.1
COCn1ccnc1C(O)(c1ccc(OC)cc1)c1ccc(OC)cc1,-1,2036,-7,-10,2,8,1.8
CC1=C(C#N)C(/C=N/OCc2ccc(F)cc2Cl)CC(=O)N1 (stereo not drawn),/,4422,-12,-3,/,/,/
COc1cccc(NC(=O)Cc2ccc(C)cc2)c1,9,4624,-18,2,/,/,3.6
CS(=O)(=O)c1ccc2nc(N)sc2c1,-2,3961,-26,-6,9,13,6.6
Cc1ccc(N2CCN(S(=O)(=O)c3ccc4c(c3)NC(=O)C(C)C(=O)N4)CC2C)cc1 (stereo not drawn),8,5484,-12,12,-5,-9,10
CC(C)NC(=S)Nc1c(N)[nH]c(=O)[nH]c1=O,3,4523,-13,4,0,5,3.9
COC(=O)[C@H]1C[C@H]1[C@@H](NC(=O)c1cccnc1)c1ccccc1,/,2889,-13,-2,/,/,/
CC(C)C[C@H](NC(=O)C1CCN(S(=O)(=O)c2ccccc2)CC1)C(=O)NCc1ccccn1,4,5272,-46,-3,3,8,-1.1
Cc1ccc(NC(=S)N(Cc2cccs2)Cc2cc3cc(C)cc(C)c3[nH]c2=O)cc1,-3,2331,-26,3,1,0,2.6
COc1ccc(N2CCN(C(=S)Nc3cccc(C)c3C)CC2)cc1,1,8167,-23,6,11,2,0.5
O=[N+]([O-])c1cccnc1SCc1ccccc1,-1,3424,-5,-5,-7,6,1.5
O=C1c2ccccc2C(=O)N1Cc1nc2ccccc2o1,-1,2359,-19,/,/,/,0.8
CC1(C)CC(=O)C(N=Nc2ccc(S(=O)(=O)N3CCOCC3)cc2)=C(O)C1,-5,4375,-18,3,-4,-4,2.7
CC1CCN(CC(O)COc2ccc(C(=O)c3ccccc3)cc2)CC1 (stereo not drawn),6,4020,-3,1,17,10,-2.0
NC(=O)C1CCN(c2oc(-c3cccs3)nc2S(=O)(=O)c2ccc(Cl)cc2)CC1,5,6726,-13,/,4,2,4.1
Cc1cc(C=NNC(=O)COc2cccc3cccnc23)c(C)n1-c1ccc(Br)cc1,-5,/,/,/,3,2,6.7
CCc1nc2ccc(C(=O)N(C)CC(=O)Nc3ccc(Cl)c(C(F)(F)F)c3)cc2nc1CC,3,5552,-5,0,4,10,-15
Cc1ccc(S(=O)(=O)NCC(=O)OCC(=O)N2CC(C)OC(C)C2)cc1 (stereo not drawn),4,3577,-20,/,8,8,2.8
CCn1c2ccccc2c2cc(NC(=O)c3cccc(OC)c3OC)ccc21,-4,2025,-14,-10,3,1,16
CC(OC(=O)COc1ccc(C#N)cc1)C(=O)Nc1ccc(Cl)cn1 (stereo not drawn),12,/,-10,9,1,8,-1.0
O=C(COC(=O)c1n[nH]c(=O)c2ccccc12)c1ccc(Cl)cc1,/,2271,-20,0,/,/,/
Cn1nnnc1SCC(=O)N(C1CCCCC1)C1CCCCC1,/,2775,-6,-3,/,/,/
SMILES,Sa ugtP lethal,Autofluor counter,PrP 5UTR inh,BJeLR viability,Mtb hypoxia rep,Mtb hypoxia rep growth,RN4220 kill
O=C(COC(=O)c1ccc2c(c1)OCO2)Nc1ccccc1,-5,3346,-26,7,-11,5,0.6
O=C(COC(=O)c1cn(-c2ccccc2)nc1-c1ccccc1)c1cccc([N+](=O)[O-])c1,-18,16553*,-20,-6,11,6,5.9
Cc1ccc(NC(=S)N(CCCN2CCC(C)CC2)Cc2ccco2)cc1C,0,3489,-17,2,13,7,-2.9
Cc1ccc(CN2CC3CC(C2)c2cccc(=O)n2C3)cc1 (stereo not drawn),7,9573,-18,-6,11,9,6.4
O=C1N(c2ccccc2C(F)(F)F)O[C@]1(c1ccccc1)C1CCCCC1,7,3007,14,/,2,0,1.0
Cc1cccc(C(=O)NC(C)C2CC3CCC2C3)c1 (stereo not drawn),-1,5332,/,6,/,/,2.7
Cn1c(=O)c(C(=O)CCl)c(N)n(CC2CC2)c1=O,-6,3533,18,/,13,15,6.7
COc1ccc(NS(=O)(=O)c2cc([N+](=O)[O-])ccc2NN=Cc2c(C)[nH]c3ccccc23)cc1,-9,/,/,/,9,8,-6.2
Cn1c(=O)c2c(nc(Oc3cccc(O)c3)n2C)n(C)c1=O,11,3440,-8,-3,10,5,4.9
CC1=NN(C(N)=S)C(=O)C1N=Nc1cccc(C)c1 (stereo not drawn),1,4859,-49,8,4,0,3.9
COc1cccc(NC(=O)CN(C)C(=O)/C=C/c2cn(-c3ccccc3)nc2-c2ccc(OC)c(OC)c2)c1,0,3898,-5,/,2,1,8.4
O=C(NCCS(=O)(=O)NCc1ccccn1)c1ccccc1,11,5606,-50,1,7,-1,3.4
CCC(=O)Nc1ccc(NC(=O)CSc2nnc(-c3ccco3)n2C)cc1,15,4128,-26,-1,16,-1,4.9
CCOc1ccccc1NC(=O)CSc1nc2ccccc2nc1N1CCOCC1,5,5798,-7,-3,3,-1,1.7
Cc1cc(=O)[nH]c(NN=Cc2cn(CCC#N)nc2-c2ccccc2)n1,7,/,/,/,-1,7,4.0
CCCCOC(=O)c1ccccc1C(=O)OCCCC,13,8915,-13,/,6,1,5.3
CC(C)(C)c1ccc(C(=O)N2CCC(C(=O)NCC3CCCO3)CC2)cc1 (stereo not drawn),-14,22225*,-29,13,10,14,7.0
O=C(COC(=O)c1cc([N+](=O)[O-])ccc1N1CCOCC1)NC1CCS(=O)(=O)C1 (stereo not drawn),3,4402,-9,-1,-2,0,-1.0
O=C(O)C1(O)CC(O)C(O)C(O)C1 (stereo not drawn),4,/,/,/,0,-2,5.7
O=C(CSc1ccc(-c2ccncc2)nn1)N1CCCCC1,4,4002,4,36,3,-4,4.9
CCSc1nc(O)c(C2OC(=O)c3c2ccc(OC)c3OC)c(=O)n1-c1ccccc1 (stereo not drawn),2,9613,-28,-13,8,9,2.1
COc1cccc(CN(c2ccc3c(c2)CCC3)S(=O)(=O)c2ccc(-n3cnnn3)c(OC)c2)c1,-1,2453,-6,-1,-3,-4,-2.4
C=CCn1c(C(C)NC(=O)CCC)nc2ccccc21 (stereo not drawn),3,7307,0,-4,10,2,1.4
CCN(CC(=O)Nc1c(F)cccc1F)C(=O)c1ccc(C(F)(F)F)cc1,22,3890,-6,1,-11,1,-1.5
O=C(CNC(=S)NC(=O)c1cccc([N+](=O)[O-])c1)c1ccccc1,-28,2596,-14,-1,4,-8,5.7

# Sorted by formula weight (largest number first): some entries from above
SMILES,Sa ugtP lethal,Autofluor counter,PrP 5UTR inh,BJeLR viability,Mtb hypoxia rep,Mtb hypoxia rep growth,RN4220 kill
COc1cccc(NC(=O)CN(C)C(=O)/C=C/c2cn(-c3ccccc3)nc2-c2ccc(OC)c(OC)c2)c1,0,3898,-5,/,2,1,8.4
COc1cccc(CN(c2ccc3c(c2)CCC3)S(=O)(=O)c2ccc(-n3cnnn3)c(OC)c2)c1,-1,2453,-6,-1,-3,-4,-2.4
COc1ccc(NS(=O)(=O)c2cc([N+](=O)[O-])ccc2NN=Cc2c(C)[nH]c3ccccc23)cc1,-9,/,/,/,9,8,-6.2
CCN(CC(=O)Nc1c(F)cccc1F)C(=O)c1ccc(C(F)(F)F)cc1,22,3890,-6,1,-11,1,-1.5
CCCCOC(=O)c1ccccc1C(=O)OCCCC,13,8915,-13,/,6,1,5.3
Cn1c(=O)c(C(=O)CCl)c(N)n(CC2CC2)c1=O,-6,3533,18,/,13,15,6.7
Cc1cccc(C(=O)NC(C)C2CC3CCC2C3)c1 (stereo not drawn),-1,5332,/,6,/,/,2.7

# Additional results:
SMILES,Sa ugtP lethal,Autofluor counter,PrP 5UTR inh,BJeLR viability,Mtb hypoxia rep,Mtb hypoxia rep growth,RN4220 kill
Cc1ccc(-n2c3c(cc(C(=O)O)c2=O)C(=O)CC(C)(C)C3)cc1,6,2929,-14,-4,/,/,3.3
CCCn1c(SCC(=O)NC2CCCCC2)nnc1C1CC1,2,4420,-10,1,8,0,0.4
O=C(Nc1ccc(C2=NCCN2)cc1)c1ccc(C(=O)Nc2ccc(C3=NCCN3)cc2)c([N+](=O)[O-])c1,/,3067,-10,4,/,/,/
Nc1nc(-c2ccccc2)cc(N2CCCCC2)n1,-1,2318,-17,26,/,/,2.4
Cc1cc(NC(=O)C(C)SCC(=O)N(C)Cc2c(F)cccc2Cl)no1 (stereo not drawn),5,4112,-6,/,7,6,2.2
Cc1ccc(C(=O)c2cccc(N)c2)cc1C,7,2166,51,-4,-9,0,12
Cc1ccc2c(c1)C(O)(C1COC(C)(C)CC1=O)C(=O)N2C (stereo not drawn),3,2620,-4,-12,-11,6,1.8
COc1cc(NC(=O)COC(=O)c2ccccc2SCC(=O)N2CCCC2)cc(OC)c1,-4,5474,1,6,0,-2,1.8
Cc1[nH]n(-c2ccccc2)c(=O)c1C(=O)c1ccc(Cl)cc1,17,4169,-8,7,-6,-5,27
COc1cc2ncnc(NCc3ccccc3C)c2cc1OC,-6,2206,-26,2,/,/,5.2
